# Compound activity: PubChem, Broad Institute
# Vaccinia stage = blocks a specific stage of Vaccinia orthopoxvirus infection; Vaccinia-infected cells, mCherry/Venus stage reporter fluorescence; stronger effect = lower value; some inactives read as strong as hits; AID 1053133; 0.01% of 89,000 active; activity change (mCherry), % (test concentration not listed);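 active means mCherry past -33% and 40 or more points under the early reporter, replicates agreeing; inconclusive means past -33% without that gap or agreement; tested in A549 cells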;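 further: scaled between vehicle wells and reference inhibitor wells; 23 nL library stock went into each well; one replicate is shown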
# Vaccinia stage Venus = second read-out of Vaccinia stage, no call of its own (marks repeat the call); activity change (Venus), %; measured here: Venus reporter, other viral stage;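 negative = less Venus signal; first of two replicates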
# Active calls of the source: *; ? = inconclusive; · = not tested or not shown; & = joins results of further samples.
SMILES,Vaccinia stage,Vaccinia stage Venus
Cc1noc(C)c1NC(=O)Nc1ccc2c(c1)C(=O)N([C@@H](C)CO)C[C@@H](C)[C@H](CN(C)C(=O)CCCN(C)C)OCCCC[C@@H](C)O2,40,18
C[C@H](NC(=O)C[C@@H]1C[C@H]2c3cc(NC(=O)C4CCC4)ccc3O[C@H]2[C@@H](CO)O1)c1ccccc1,2,-4
C[C@H]1CN([C@@H](C)CO)S(=O)(=O)c2ccc(Br)cc2O[C@H]1CN(C)S(=O)(=O)c1ccccc1,-18&-30,-13&-24
C[C@@H]1CN([C@H](C)CO)C(=O)c2cccc(NC(=O)Nc3ccc(F)cc3)c2O[C@@H]1CN(C)C(=O)Nc1ccc2c(c1)OCO2,8,8
CC(C)NC(=O)N(C)C[C@@H]1OCCCC[C@@H](C)Oc2ccc(NC(=O)Nc3ccc(F)cc3)cc2C(=O)N([C@H](C)CO)C[C@@H]1C,11,13
O=C(N[C@@H]1CC[C@H](CC(=O)N2CCN(c3ccccc3)CC2)O[C@@H]1CO)c1ccncc1,11,5
Cc1ccc(-c2cnc3c(c2)C(=O)N([C@@H](C)CO)C[C@H](C)[C@H](CN(C)Cc2ccccc2F)O3)cc1,-17,-13
Cc1ccccc1-c1ccc([C@@H]2[C@@H](CO)N3CCCCN(S(=O)(=O)c4cn(C)cn4)C[C@H]23)cc1,-15,-15
O=C(CCN1CCCCC1)N[C@H]1CC[C@H](CCNC(=O)c2cc(Cl)cc(Cl)c2)O[C@H]1CO,-2,6
Cc1cc(C(=O)Nc2cccc3c2O[C@@H](CN(C)S(=O)(=O)c2cn(C)cn2)[C@@H](C)CN([C@H](C)CO)C3=O)n(C)n1,27,11
CC(C)CC#Cc1cnc2c(c1)C(=O)N([C@@H](C)CO)C[C@H](C)[C@@H](CN(C)C(=O)CC1CC1)O2,-11,-21
N#Cc1ccc(-c2ccc3c(c2)[C@H]2[C@H](CCN2C(=O)CN2CCOCC2)[C@@H](CO)N3)cc1,2,-5
O=C(Cc1ccccc1)N1CC[C@@H]2[C@@H](CO)Nc3ccc(-c4cccc(F)c4)cc3[C@@H]21,?,·
C[C@@H](O)C#Cc1ccc([C@@H]2[C@@H](CO)N3CCCCN(S(=O)(=O)Cc4ccccc4)C[C@@H]23)cc1,10,11
CCNC(=O)C[C@@H]1CC[C@@H](NC(=O)NC2CCCCC2)[C@@H](CO)O1,3,0
CN(C)C(=O)c1ccc(-c2ccc([C@@H]3[C@H]4CN(C(=O)C5CCC5)CCCCN4[C@H]3CO)cc2)cc1,4,0
COc1ccc(NC(=O)N(C)C[C@H]2Oc3ccc(N(C)C)cc3CC(=O)N([C@@H](C)CO)C[C@H]2C)cc1,23,15
CO[C@@H]1CN(C)C(=O)c2ccc(NC(=O)C3CC3)cc2OC[C@H](C)N(CCc2ccccc2)C[C@H]1C,-14,-7
O=C(Nc1cc(F)ccc1F)N1CC(=O)N2[C@H](C1)[C@@H](c1ccc(C#CC3CCCC3)cc1)[C@@H]2CO,?,·
CCCc1cn(CC[C@H]2CC[C@@H](NC(=O)C3CCCC3)[C@@H](CO)O2)nn1,-4,13
O=C(Nc1ccc(C(F)(F)F)cc1)N1C[C@@H]2N[C@H](C1)C2c1ccc(-c2ccccc2)cc1 (stereo partly specified),?,·
C[C@H]1CN([C@@H](C)CO)C(=O)c2cc(NS(=O)(=O)c3cn(C)cn3)ccc2O[C@@H]1CN(C)S(=O)(=O)c1ccc(Cl)cc1,13,5
C[C@@H]1CN([C@@H](C)CO)C(=O)c2cc(NC(=O)Cc3ccccc3)ccc2O[C@H]1CN(C)C,17,4
C[C@@H]1CN([C@@H](C)CO)C(=O)c2cccc(NC(=O)Nc3ccc4c(c3)OCO4)c2O[C@H]1CN(C)C(=O)Nc1ccc2c(c1)OCO2,0,-3
C[C@@H]1CCCCO[C@H](CN(C)Cc2ccc(C(=O)O)cc2)[C@H](C)CN([C@@H](C)CO)C(=O)c2cc(NS(=O)(=O)c3ccc(Cl)cc3)ccc2O1,26,14
C[C@H](CO)N1C[C@H](C)[C@H](CN(C)CC2CCOCC2)Oc2ncc(C#Cc3ccncc3)cc2C1=O,16,24
COc1cccc(-c2cn(CC[C@@H]3CC[C@@H](NC(=O)CN(C)C)[C@@H](CO)O3)nn2)c1,2,1
C[C@H](CO)N1C[C@H](C)[C@H](CN(C)Cc2cccc(C(F)(F)F)c2)OCc2ccccc2-c2ccccc2C1=O,?,·
C[C@@H]1CCCCO[C@H](CN(C)S(=O)(=O)c2cn(C)cn2)[C@H](C)CN([C@@H](C)CO)C(=O)c2cc(NC(=O)Nc3ccc4c(c3)OCO4)ccc2O1,-5,-10
C[C@@H]1CCCCO[C@@H](CN(C)C(=O)C2CCCCC2)[C@@H](C)CN([C@@H](C)CO)C(=O)c2cc(NC(=O)CCC(F)(F)F)ccc2O1,-10,-8
COc1cccc(NC(=O)N(C)C[C@@H]2Oc3ncc(C4=CCCCC4)cc3C(=O)N([C@H](C)CO)C[C@@H]2C)c1,-12,-10
C[C@@H]1CN([C@H](C)CO)C(=O)c2cc(/C=C/c3ccccc3)cnc2O[C@@H]1CN(C)S(=O)(=O)c1ccccc1F,?,·
CCCC#Cc1cnc2c(c1)C(=O)N([C@H](C)CO)C[C@@H](C)[C@H](CN(C)C(=O)NCCC)O2,6,3
CCCC#Cc1ccc2c(c1)O[C@H](CN(C)C(=O)CC1CC1)[C@@H](C)CN([C@@H](C)CO)S2(=O)=O,-8,-9
COCC#Cc1ccc2c(c1)O[C@H](CN(C)CC1CC1)[C@H](C)CN([C@H](C)CO)S2(=O)=O,-5,-9
CO[C@H]1CN(C)C(=O)c2ccc(NC(=O)C3CC3)cc2OC[C@@H](C)N(C)C[C@@H]1C,10,5
C[C@H](CO)N1C[C@H](C)[C@H](CN(C)Cc2cncnc2)Oc2ncc(C#CC3(O)CCCC3)cc2C1=O,10&16,5&11
COc1ccccc1-c1ccc([C@@H]2[C@@H](C#N)N(C(=O)NC(C)C)[C@@H]2CO)cc1,-7,-14
O=C(Nc1ccc2c(c1)[C@H]1C[C@@H](CC(=O)N3CCCCC3)O[C@H](CO)[C@H]1O2)NC1CCCC1,0,-3
COc1cccc(S(=O)(=O)N[C@H]2CC[C@H](CCN)O[C@H]2CO)c1,8,10

# Grouped by structure, the entries above with two or more sulfur atoms.
SMILES,Vaccinia stage,Vaccinia stage Venus
C[C@H]1CN([C@@H](C)CO)S(=O)(=O)c2ccc(Br)cc2O[C@H]1CN(C)S(=O)(=O)c1ccccc1,-18&-30,-13&-24
C[C@H]1CN([C@@H](C)CO)C(=O)c2cc(NS(=O)(=O)c3cn(C)cn3)ccc2O[C@@H]1CN(C)S(=O)(=O)c1ccc(Cl)cc1,13,5

# The list goes on:
SMILES,Vaccinia stage,Vaccinia stage Venus
C[C@@H]1CN([C@@H](C)CO)C(=O)c2cc(NC(=O)Nc3ccc(F)cc3)ccc2O[C@H]1CN(C)C(=O)NC1CCCCC1,9,4
O=C(Nc1ccccc1)N[C@H]1CC[C@@H](CCNS(=O)(=O)c2cccc(F)c2)O[C@@H]1CO,14,20
Cc1ccc(S(=O)(=O)N(C)C[C@@H]2OCCCC[C@H](C)Oc3ccc(NS(=O)(=O)c4c(C)noc4C)cc3C(=O)N([C@H](C)CO)C[C@@H]2C)cc1,?,·
C[C@@H]1CN([C@H](C)CO)C(=O)c2cc(C3=CCCC3)cnc2O[C@@H]1CN(C)C(=O)C1CCC1,-3,9
CO[C@@H]1CN(C)C(=O)c2ccc(NC(=O)c3ccccc3)cc2OC[C@H](C)N(C(C)=O)C[C@H]1C,-8,-20
CCCNC(=O)N1[C@H](C#N)[C@@H](c2ccc(-c3cccnc3)cc2)[C@@H]1CO,15,5
O=C(Nc1ccccc1)[C@H]1[C@H](CO)[C@H]2Cn3c(cccc3=O)[C@H]2N1CC1CC1,12,10
Cc1ccc(S(=O)(=O)Nc2cccc3c2O[C@@H](CN(C)S(=O)(=O)c2ccccc2)[C@H](C)CN([C@@H](C)CO)C3=O)cc1,5,-2
C[C@H]1CN([C@@H](C)CO)C(=O)c2c(c3ccccc3n2C)-c2ccccc2CO[C@@H]1CN(C)C(=O)Nc1ccc(-c2ccccc2)cc1,?,·
CN1C(=O)c2cc(NS(=O)(=O)c3cccc(F)c3)ccc2OC[C@@H]2O[C@H](CC(=O)N3CCc4ccccc4C3)CC[C@H]21,-10,-8
COc1ccc2c3c(n(C)c2c1)[C@@H](CO)N(C(=O)NC(C)C)CC31CCN(C(=O)NC(C)C)CC1,17,8
C[C@@H]1CN([C@H](C)CO)C(=O)c2cc(NC(=O)Nc3ccc(F)cc3)ccc2O[C@@H](C)CCCCO[C@H]1CN(C)Cc1ccccc1,?,·
N#C[C@@H]1[C@@H](c2ccccc2-c2cccc(F)c2)[C@@H](CO)N1C(=O)NC1CCCCC1,-21,-6
C[C@@H]1CN([C@H](C)CO)C(=O)Cc2cc(NS(=O)(=O)c3ccc(Cl)cc3)ccc2O[C@@H]1CN(C)S(C)(=O)=O,5,4
COc1ccccc1CNC(=O)C[C@H]1C[C@@H]2c3cc(NC(=O)CN(C)C)ccc3O[C@@H]2[C@@H](CO)O1,-10,-10
C[C@H]1CN([C@@H](C)CO)C(=O)c2cc(NC(=O)CCC(F)(F)F)ccc2O[C@H]1CN(C)S(=O)(=O)c1ccc(F)cc1,10,7
CCCC(=O)Nc1ccc2c(c1)OC[C@@H](C)N(Cc1ccccn1)C[C@@H](C)[C@H](OC)CN(C)C2=O,3,-1
COCC#Cc1ccc([C@H]2[C@@H](CO)N3CCCCN(C(=O)Nc4cc(F)ccc4F)C[C@@H]23)cc1,4,-2
COc1ccc(C#Cc2ccc([C@H]3[C@@H](CO)N4C(=O)CN(C(=O)NC(C)C)C[C@H]34)cc2)cc1,-2,3
C[C@@H]1CN([C@H](C)CO)C(=O)c2cc(NS(=O)(=O)c3ccccc3)ccc2O[C@H]1CN(C)CC1CC1,25,2

# Retrieved one by one from the entries so far, three records:
SMILES,Vaccinia stage,Vaccinia stage Venus
N#C[C@@H]1[C@@H](c2ccccc2-c2cccc(F)c2)[C@@H](CO)N1C(=O)NC1CCCCC1,-21,-6
CN1C(=O)c2cc(NS(=O)(=O)c3cccc(F)c3)ccc2OC[C@@H]2O[C@H](CC(=O)N3CCc4ccccc4C3)CC[C@H]21,-10,-8
COc1ccccc1CNC(=O)C[C@H]1C[C@@H]2c3cc(NC(=O)CN(C)C)ccc3O[C@@H]2[C@@H](CO)O1,-10,-10

# Exported as tab-separated lines: part of the list above.
structure	Vaccinia stage	Vaccinia stage Venus
COCC#Cc1ccc([C@H]2[C@@H](CO)N3CCCCN(C(=O)Nc4cc(F)ccc4F)C[C@@H]23)cc1	4	-2
C[C@@H]1CN([C@H](C)CO)C(=O)c2cc(C3=CCCC3)cnc2O[C@@H]1CN(C)C(=O)C1CCC1	-3	9

# Remaining list, next part.
SMILES,Vaccinia stage,Vaccinia stage Venus
CCCC#Cc1ccc([C@@H]2[C@H](CO)N3CCCCN(S(=O)(=O)CC)C[C@@H]23)cc1,9,-14
C[C@H]1CN([C@@H](C)CO)C(=O)c2cc(NS(C)(=O)=O)ccc2O[C@@H]1CN(C)Cc1ccncc1,11,11
O=C(NCCc1ccccc1)[C@@H]1[C@@H](CO)[C@@H]2Cn3c(cccc3=O)[C@H]1N2C(=O)C1CC1,13,3
C[C@@H]1CN([C@@H](C)CO)C(=O)c2cc(NC(=O)NC3CCCCC3)ccc2O[C@@H](C)CCCCO[C@H]1CN(C)Cc1ccc2c(c1)OCO2,?,·
O=C(NCCN1CCCCC1)[C@@H]1N[C@@H]2c3ccc(-c4ccc(F)cc4)c(=O)n3C[C@@H]2[C@H]1CO,-6,-1
Cc1cccc(CN(C)C[C@H]2OCc3cn(nn3)CCCC(=O)N([C@@H](C)CO)C[C@H]2C)c1,12,9
CCCNC(=O)N1CC(=O)N2[C@H](CO)[C@@H](c3ccc(-c4ccc(F)cc4)cc3)[C@@H]2C1,-25,-25
O=C(C[C@H]1CC[C@@H]2[C@H](COC[C@@H](O)CN2S(=O)(=O)c2cccc(Cl)c2)O1)NC1CCCC1,-8,-9
Cc1ccc(S(=O)(=O)Nc2ccc3c(c2)CC(=O)N([C@@H](C)CO)C[C@H](C)[C@@H](CN(C)Cc2ccc(Cl)c(Cl)c2)O3)cc1,?,·
CN(C)C(=O)C[C@H]1CC[C@H]2[C@@H](COC[C@H](O)CN2C(=O)C2CCCC2)O1,8,14
C[C@@H]1CN([C@H](C)CO)C(=O)CCCn2nncc2CO[C@H]1CN(C)CC1CCCCC1,12,12
Cc1ccc(S(=O)(=O)N(C)C[C@H]2Oc3ccc(NC(=O)Nc4ccc(F)cc4)cc3CC(=O)N([C@@H](C)CO)C[C@H]2C)cc1,?,·
CN(C)CC(=O)N1[C@H](C#N)[C@@H](c2ccc(-c3cccc(C(=O)N(C)C)c3)cc2)[C@@H]1CO,9,1
O=C(C[C@@H]1C[C@@H]2c3cc(NC(=O)C4CCC4)ccc3O[C@@H]2[C@H](CO)O1)NCc1ccccc1F,-4,2
C[C@@H]1CN([C@@H](C)CO)C(=O)CCCn2nncc2CO[C@@H]1CN(C)C(=O)OCc1ccccc1,6&5,5&6
O=C(Cc1ccccn1)N1CC2(C1)[C@@H](c1ccccc1)[C@@H](CO)N2C(=O)c1cccnc1,23,26
CC(C)NC(=O)N[C@H]1CC[C@H](CCn2cc(-c3ccc(F)cc3)nn2)O[C@H]1CO,-11,-5
C[C@@H]1CN([C@H](C)CO)S(=O)(=O)c2ccc(C#Cc3ccccc3)cc2O[C@H]1CN(C)C(=O)c1ccccn1,-21,-10
COCC(=O)N1CC2(C1)CN(C(=O)COC)[C@H](CO)c1c2c2ccc(OC)cc2n1C,13,-1
Cc1noc(C)c1S(=O)(=O)Nc1ccc2c(c1)CC(=O)N([C@@H](C)CO)C[C@@H](C)[C@@H](CN(C)Cc1ccc(C(=O)Nc3ccccc3N)cc1)O2,4,-4
Cc1noc(C)c1NC(=O)Nc1ccc2c(c1)CC(=O)N([C@H](C)CO)C[C@H](C)[C@@H](CN(C)CC1CC1)O2,9,10

# The list is partial; count on the stated rates, not on these rows.
